Screening data as filed in PubChem.
D2 ag: human D2 receptor agonism in beta-arrestin assay; P14416; 0.084% of 360,000 active; DiscoveRx PathHunter D2 beta-arrestin, luminescence, 90 min; 100% = 57 uM dopamine signal; activation, % (no concentration beside the values); AID 624465; in the data active = activation above about 40%; inconclusive = about 15% to 40%; inactive = below about 15%; also: compound concentration not given in the record; the text of the record calls up to 30% inactive
Target sequence (P14416 whole entry, looked up): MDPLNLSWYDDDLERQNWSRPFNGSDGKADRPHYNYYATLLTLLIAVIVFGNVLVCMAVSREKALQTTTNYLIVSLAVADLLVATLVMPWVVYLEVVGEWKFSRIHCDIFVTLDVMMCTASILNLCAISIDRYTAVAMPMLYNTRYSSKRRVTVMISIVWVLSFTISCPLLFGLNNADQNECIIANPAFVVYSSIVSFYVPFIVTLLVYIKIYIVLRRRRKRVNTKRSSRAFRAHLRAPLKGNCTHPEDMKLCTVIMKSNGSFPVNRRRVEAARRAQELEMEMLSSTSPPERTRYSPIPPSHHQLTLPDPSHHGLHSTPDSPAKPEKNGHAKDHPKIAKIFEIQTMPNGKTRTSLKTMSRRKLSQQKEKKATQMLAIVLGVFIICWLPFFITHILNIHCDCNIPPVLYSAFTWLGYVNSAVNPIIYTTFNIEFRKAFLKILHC
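Agonist mode: compounds alone added to overnight-plated D2 PathHunter cells for 90 min at 37 C, with 57 uM final dopamine (EC100) defining full response. Beta-arrestin recruitment detected by chemiluminescent reagent, read after 1 h at ambient temperature.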
TRPML1 inh: human mucolipin-1 channel inhibition; TRPML1-inducible cells, Ca2+ dye fluorescence, FDSS; stronger effect = lower value; inhibition of EC80 agonist-evoked calcium signal; activity change, negative = inhibition, % (test concentration not listed); 0.02% of 390,000 active; AID 624415; in the data active means activity change below about -50%; inconclusive means about -30% to -50%; inactive means above about -30%;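 also: stimulus is agonist 54-4 at its EC80 concentration; % is scaled to controls: 0 for no effect and ±100 for the full control effect; compound concentration not given in the record; the text of the record puts the active cut at -80%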
Target sequence (Q9GZU1 whole entry, looked up): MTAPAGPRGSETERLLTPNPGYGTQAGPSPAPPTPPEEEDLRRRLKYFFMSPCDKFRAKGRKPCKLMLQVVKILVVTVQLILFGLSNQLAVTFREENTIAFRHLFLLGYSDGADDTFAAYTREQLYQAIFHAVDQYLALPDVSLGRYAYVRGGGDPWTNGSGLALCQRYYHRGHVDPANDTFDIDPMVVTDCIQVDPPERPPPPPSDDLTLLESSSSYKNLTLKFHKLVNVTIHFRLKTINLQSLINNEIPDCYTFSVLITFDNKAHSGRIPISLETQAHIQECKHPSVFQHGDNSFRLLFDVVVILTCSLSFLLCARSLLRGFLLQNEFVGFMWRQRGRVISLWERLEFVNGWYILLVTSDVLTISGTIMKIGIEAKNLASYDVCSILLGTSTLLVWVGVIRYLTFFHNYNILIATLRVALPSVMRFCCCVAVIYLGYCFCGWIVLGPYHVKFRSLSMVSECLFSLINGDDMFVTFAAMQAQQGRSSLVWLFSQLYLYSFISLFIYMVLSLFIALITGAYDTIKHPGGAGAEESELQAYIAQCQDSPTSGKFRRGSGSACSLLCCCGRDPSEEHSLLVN
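Calcium fluorescence in TRPML1-DL cells induced overnight with Tet: a 110 s read after compound pin addition, then a 110 s antagonist read after challenge with 54-4 at 4 uM final (EC80).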
Six1-Eya2 blk: inhibitors of human Six1/Eya2 interaction. Q15475+O00167. AlphaScreen GST-Six1/His-Eya2 binding, biochemical; stronger effect = lower value; control for the full effect not named in the record. activity change, % (test concentration not listed). 0.56% of 360,000 active; in the data active = activity change below about -65%; inconclusive = about -30% to -65%; inactive = above about -30%; also: % is scaled to controls: 0 for no effect and ±100 for the full control effect; compound concentration not given in the record
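Six1/Eya2 binding was read as AlphaScreen signal after compounds were pinned into GST-Six1 plus His-tagged Eya2 (5X stock 250/500 nM) in pH 8.0 Tris/NaCl/TCEP buffer, beads added, then incubated 1 h, 37 C, dark.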
TRPML1 ag: human mucolipin-1 channel agonism. Q9GZU1. TRPML1-expressing cells, Ca2+ dye fluorescence, FDSS; host cell line not named in the record; reference of the full effect not given here. activation, % (test concentration not listed). 0.12% of 410,000 active; in the data active = activation above about 50%; inconclusive = about 30% to 50%; inactive = below about 30%; also: 0% is about no effect; the text of the record puts the active cut at 80%
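Calcium fluorescence on an FDSS kinetic reader gave the read-out. Tet-induced TRPML1-DL cells were plated overnight, dye-loaded (Ca8 with quencher, 45-90 min, room temperature, dark), then read 110 s after compound addition, and again 110 s after 4uM final 54-4 (EC80).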
PINK1 modulator: modulators of PINK1 expression; PINK1 immunofluorescence, high-content cytometry, 24 h; Potency, µM (doses to about 76.6 µM), inactives show at the highest dose activation (PINK1 increase), usual class: activators; 0.2% of 410,000 active; active = well fitted activation curve with a large enough effect; inconclusive = small, poorly fitted or top-dose-only effect; inactive = flat fitted curve, though single readings scatter; cell line not stated here;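 also: potency is read from the fitted curve at half-maximal effect; % of control where 0% means no effect; nearly all actives have a fitted effect of over 65% in size; a mitochondrial uncoupler was the plate control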
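Cells are seeded, rested 12 hours, then given compound at five concentrations or DMSO for 24 hours. After fixation, blocking and antibody staining, PINK1 amount and mitochondrial localization are scored; CCCP serves as control.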
D2 PAM: human D2 receptor positive allosteric modulation. P14416. DiscoveRx D2 beta-arrestin cells, luminescence, 90 min; 100% = 57 uM dopamine signal. potentiation, % (no concentration beside the values). 0.23% of 360,000 active. AID 624464; active = potentiation of 50% or more; inconclusive = 30% to 50%; inactive = 30% or less;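 also: compound concentration not given in the record; tested on top of an EC20 dose of dopamine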
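D2 cells co-treated with compound plus 50 nM dopamine (EC20) for 90 min at 37 deg C to detect potentiation. Beta-arrestin recruitment was read as enzyme-fragment luminescence after 1 h at ambient temperature. Full response was set by 57 uM dopamine.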
Numbers without * were called inactive; ? = inconclusive; . = not tested or not shown; [ ] = dose if it differs, or a comment.

mol | D2 PAM | TRPML1 inh | D2 ag | TRPML1 ag | Six1-Eya2 blk | PINK1 modulator
O=C(COC(=O)COc1ccccc1)Nc1cccc([N+](=O)[O-])c1 | -1 | -10 | -5.4 | 0.9 | 6 | 2.0%
CCN(C(=O)c1ccc(S(=O)(=O)N2CCOCC2)cc1)C1CCS(=O)(=O)C1 (stereo unspecified) | -9 | 21 | -1.8 | -0.3 | 2 | 0.5%
COc1cc(OC)c(NC(=O)Cc2cccs2)cc1Cl | -3 | -1 | -2.9 | 0.0 | 2 | -1.8%
COc1ccc(N2C(=O)c3cccc4cc(Br)cc(c34)C2=O)cc1 | -3 | 18 | -5.5 | -0.9 | -4 | 13%
C=CCOc1c2ccc(C(=O)NCCc3ccc(C)cc3)cc2nn1C | -2 | 37 | 1.5 | -0.3 | 5 | 0.1%
O=C(COC(=O)c1ccc(F)cc1F)NCCNC(=O)COC(=O)c1ccc(F)cc1F | -9 | -15 | -2.2 | 0.8 | 4 | -0.1%
Cc1cc2ncn(C3CC(=O)N(Cc4ccccc4)C3=O)c2cc1C (stereo unspecified) | 11 | -7 | 2.7 | 0.3 | 0 | 1.3%[38.3 µM]
COc1ccc(/C=N/NC(=O)c2ccncc2)cc1Cn1nc([N+](=O)[O-])c(Br)c1C | 7 | 17 | -0.2 | -0.1 | -69* | 1.6%
COc1ccccc1N1C(=NC(=O)CCc2ccccc2)SC2CS(=O)(=O)CC21 (stereo unspecified) | -7 | 12 | -0.6 | -0.5 | 5 | 0.7%
COc1ccccc1Oc1ccc(NC(=O)c2ccc(Cl)cc2)cc1 | -3 | 23 | 0.8 | 4.9 | 6 | 6.3%
COc1ccc(NC(=O)c2ccc(-c3ccccc3)cc2)cc1NS(=O)(=O)c1ccc(F)cc1 | -8 | 1 | 9.4 | -0.6 | 3 | -1.6%
O=C(CCn1c(=O)oc2ccccc21)N1CCN(c2ccc(F)cc2)CC1 | -10 | 13 | -1.8 | -0.2 | 2 | 0.5%

Profiles, looked up by structure:
`O=C(CCn1c(=O)oc2ccccc21)N1CCN(c2ccc(F)cc2)CC1` across the screens: D2 PAM: -10; TRPML1 inh: 13; D2 ag: -1.8; TRPML1 ag: -0.2; Six1-Eya2 blk: 2; PINK1 modulator: 0.5%
`O=C(COC(=O)COc1ccccc1)Nc1cccc([N+](=O)[O-])c1` across the screens: D2 PAM: -1; TRPML1 inh: -10; D2 ag: -5.4; TRPML1 ag: 0.9; Six1-Eya2 blk: 6; PINK1 modulator: 2.0%

Returning to the listing, starting 2 compounds before the break.
mol | D2 PAM | TRPML1 inh | D2 ag | TRPML1 ag | Six1-Eya2 blk | PINK1 modulator
COc1ccc(NC(=O)c2ccc(-c3ccccc3)cc2)cc1NS(=O)(=O)c1ccc(F)cc1 | -8 | 1 | 9.4 | -0.6 | 3 | -1.6%
O=C(CCn1c(=O)oc2ccccc21)N1CCN(c2ccc(F)cc2)CC1 | -10 | 13 | -1.8 | -0.2 | 2 | 0.5%
Cc1ccc(C(=O)NCCSCc2ccc(Cl)cc2Cl)cc1[N+](=O)[O-] | 0 | 10 | 0.7 | 0.6 | -3 | 3.2%
Cc1ccc(-c2n[nH]c(=S)n2/N=C\c2ccco2)cc1 | 4 | -19 | -1.5 | 1.1 | -1 | -2.7%
CN1CCN(C(=O)CN2C(=O)COc3ccc(S(=O)(=O)N4CCOCC4)cc32)CC1 | 2 | 4 | 1.5 | -0.5 | 3 | -0.5%
CC1CCCN(C(=O)C2CCN(S(=O)(=O)c3cccc4cccnc34)CC2)C1 (stereo unspecified) | -7 | -4 | -0.5 | 0.0 | -2 | 1.5%
Cc1cc([N+](=O)[O-])ccc1NC(=O)Nc1ccccc1F | -8 | -2 | 0.7 | 0.5 | -1 | 2.2%
O=C(COc1ccc(F)cc1)Nc1ccc2nc(SCC(=O)N3CCc4ccccc43)sc2c1 | . | -10 | . | 0.4 | . | 2.6%
COc1cc(NC(=O)Cc2ccccc2OC)cc(OC)c1 | -4 | 0 | -2.9 | -0.1 | 2 | -0.7%
COc1cc(NC2c3ccccc3C(=O)N2Cc2ccc3c(c2)OCO3)cc(OC)c1OC (stereo unspecified) | -2 | -2 | -2.3 | 1.2 | 5 | 0.1%
COC(=O)c1ccccc1Oc1c(F)c(F)nc(N2CCOCC2)c1F | 8 | 40 | 3.3 | 1.3 | 8 | 1.5%[38.3 µM]
Cc1ccc2[nH]c(CN3CCC(CO)(CC4CCCCO4)CC3)c(C)c2c1 (stereo unspecified) | -15 | -10 | -2.0 | -0.5 | -20 | 0.7%
CCN1CCN(CCCOc2ccc(-c3ccccc3)cc2)CC1 | -10 | -6 | -3.3 | 0.5 | -12 | 3.0%[38.3 µM]
CCc1cccc(C)c1NC(=O)Nc1c(Br)cnn1C | -25 | -15 | -1.5 | 0.4 | 2 | 0.6%

Additional results follow:
mol | D2 PAM | TRPML1 inh | D2 ag | TRPML1 ag | Six1-Eya2 blk | PINK1 modulator
C=CCN(c1cccc(C(F)(F)F)c1)S(=O)(=O)c1cccc(C(=O)OCC(=O)Nc2ccccc2)c1 | 3 | 10 | -12 | 0.7 | 8 | 0.0%
OC(CNCc1ccccc1F)COc1cccc2ccccc12 (stereo unspecified) | -9 | -23 | -7.4 | 1.8 | 2 | 9.3%
Cc1ccc(NC(=O)CSc2ccc3nnc(CCNS(=O)(=O)c4ccccc4)n3n2)cc1Cl | . | 1 | . | -0.8 | . | 0.9%
CC(NC(=O)c1ccc(NC(=O)CC2SC(N3CCCC3)=NC2=O)cc1)c1ccccc1 (stereo unspecified) | 5 | 40 | -1.5 | -0.3 | 8 | 0.5%
Clc1ccc(-c2nc3c4ccccc4ccn3c2Cc2ccsc2)cc1 | . | . | . | -0.1 | 0 | 3.7%
CCCn1c(N)c(N(CCOC)C(=O)CSc2ccccc2)c(=O)[nH]c1=O | -4 | 11 | -1.6 | -0.2 | -2 | -0.1%
O=S(=O)(NCc1csc(-c2cccnc2)n1)c1cccs1 | 0 | -6 | 0.4 | -0.3 | -8 | -0.1%
CCOc1ccc(CCNC(=O)CCN2N=C(c3ccc(OC)cc3)CCC2=O)cc1OCC | . | 8 | . | 0.8 | . | 0.4%
COc1ccc(Cn2nnnc2C(c2cc3cccc(C)c3[nH]c2=O)N2CCOCC2)cc1 (stereo unspecified) | -4 | 4 | 0.4 | -0.4 | 2 | 6.8%[38.3 µM]
O=c1[nH]c2ccc(Br)cc2c(-c2ccccc2)c1CN1CCOCC1 | 5 | -1 | 6.3 | -0.7 | -25 | -0.5%
O=C(CC(Cc1ccccc1)C(=O)O)Nc1cccc(C(F)(F)F)c1 (stereo unspecified) | -3 | -4 | -3.5 | -0.9 | 0 | 0.6%
CC12CCC(=O)C=C1CCC1C2CCC2(C)C(c3csc(N)n3)CCC12 (stereo unspecified) | -8 | 24 | 2.4 | 2.9 | -16 | -0.4%

Other entries:
mol | D2 PAM | TRPML1 inh | D2 ag | TRPML1 ag | Six1-Eya2 blk | PINK1 modulator
CCOc1ccc(C(=O)N2CCCCCC2)cc1 | -3 | -27 | 0.7 | 0.3 | 5 | 0.8%
O=C(Nc1ccc(-c2nc3ccccc3o2)cc1)c1ccc(N2C(=O)C3C4C=CC(C4)C3C2=O)cc1 (stereo unspecified) | 10 | -15 | 3.5 | 1.0 | 4 | .
O=C(Cn1c(=O)c2cccn2c2ccc(F)cc21)N1CCN(c2ccccc2)CC1 | . | 7 | . | 0.7 | . | -0.3%
O=C(CN(C(=O)c1csnn1)c1ccc(Cl)cc1)NCc1ccc2c(c1)OCO2 | -5 | -7 | 0.4 | 0.0 | 0 | -0.2%
C[C@H](NC(=O)C1(c2ccccc2)CCN(C(=O)[C@H]2CSCN2C(=O)OC(C)(C)C)CC1)C(=O)O | 0 | 13 | -3.0 | 0.0 | 3 | 0.8%
CC1Cc2ccccc2N1C(=O)COC(=O)c1ccc(Br)o1 (stereo unspecified) | 12 | -1 | 4.4 | 0.8 | 1 | -0.5%
CC1(C)C(=O)NCCN1C(=O)c1ccc2nc(Cc3ccccc3F)oc2c1 | -5 | 5 | -2.9 | 0.2 | 1 | 2.4%
CN1CC(=O)N2C(c3cccc([N+](=O)[O-])c3)c3[nH]c4ccccc4c3C[C@H]2C1=O (stereo partly specified) | -5 | 1 | -3.1 | 2.5 | 0 | 0.0%
Cc1noc(C)c1COc1ccc(C(=O)NCCc2ccc(F)cc2)cc1 | -8 | 15 | -0.3 | -1.6 | 2 | 2.0%
COc1ccc(-n2c(=O)c(CCC(=O)N3CCN(c4cccc(OC)c4)CC3)nc3ccccc32)cc1 | 1 | -12 | 0.2 | -0.1 | 2 | 0.2%
Cc1nc2ccc(NC(=O)Cc3c(F)cccc3Cl)cc2s1 | -1 | ? | 6.0 | 0.7 | 5 | 0.7%
Cc1ccsc1C(=O)N1CCC1(C)C(=O)NCCC#N (stereo unspecified) | 1 | . | 7.1 | -0.3 | -1 | -0.6%

The results go on.
mol | D2 PAM | TRPML1 inh | D2 ag | TRPML1 ag | Six1-Eya2 blk | PINK1 modulator
COc1ccc(Nc2ncc(F)c(N3CCOCC3)n2)cc1 | -16 | 40 | -2.8 | 1.9 | 0 | -1.2%
CCC(C)NC(=O)CCc1nc2ccccc2n1-c1ccccc1 (stereo unspecified) | 3 | 8 | -1.3 | 2.0 | 2 | 0.3%
CC(=O)Nc1ccc(SCC(=O)c2cc(C)n(C)c2C)cc1 | 10 | 41 | -4.7 | 0.5 | -11 | -1.0%
CCCNC(=O)NC(=O)COC(=O)c1cccc(NS(=O)(=O)c2ccc(F)c(F)c2)c1 | 20 | 3 | 2.2 | 1.7 | 1 | 2.1%
CN(Cc1ccco1)C(=O)c1cccc(S(=O)(=O)N2CCN(Cc3ccccc3)CC2)c1 | -7 | -9 | -1.9 | -0.9 | -6 | 1.2%
CCCCN1CC(=O)N2[C@H]3c4cc(C)ccc4OC[C@@H]3[C@H](C(=O)OCC)[C@]2(C)C1=O | -3 | 5 | -3.9 | 0.4 | 5 | -0.2%
COCCn1c(N)c(N(Cc2ccccc2)C(=O)c2ccc3ccccc3c2)c(=O)[nH]c1=O | -2 | -2 | 1.4 | 0.7 | 1 | 0.9%
CN(CC(=O)O)C(=O)c1ccccc1 | -31 | . | -6.2 | . | 7 | -0.9%
COc1cccc(CN(C)CC2CCCN(CCc3ccccc3C)C2)c1 (stereo unspecified) | -71 | -3 | -1.4 | 0.0 | 7 | 3.7%
Cc1ccc(C)c(NC(=S)N2CCN(CCO)CC2)c1 | -19 | 6 | -1.0 | 0.5 | 1 | 0.4%
Cc1c(C(=O)N(Cc2ccccc2F)C2CCS(=O)(=O)C2)oc2ccccc12 (stereo unspecified) | . | 1 | . | -0.4 | . | 0.8%
CN1CCN(NC(=O)c2cc(S(=O)(=O)Nc3ccc(Cl)cc3)ccc2Cl)CC1 | 3 | 2 | -3.2 | 0.8 | 7 | -0.6%
CCN1CCN(C(c2cc3cccc(C)c3[nH]c2=O)c2nnnn2Cc2ccccc2)CC1 (stereo unspecified) | -12 | 13 | -0.9 | 0.6 | -1 | -2.8%
Cc1ccc(NC(=O)N2CCCC2C(=O)NCc2ccc(Cl)cc2)cc1 (stereo unspecified) | -3 | 6 | -1.5 | 0.3 | 10 | 2.3%
CC(C)n1c2ccccc2c2nnc(SCC(=O)Nc3ccccc3C(=O)O)nc21 | 2 | 4 | 4.3 | 0.7 | -5 | 0.4%
